# Sa ugtP lethal: growth inhibition of ugtP-null S. aureus, primary screen, RN4220 ugtP deletion, OD600; 16 h; some inactives read as strong as hits; AID 1259309, 2017; actives 0.54% (n = 330,000); growth inhibition, % (no concentration beside the values);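 active = z-score under -3 and OD600 up to 0.15 on both plates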;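 also: plate controls were untreated wells for no effect and antibiotic for full effect; wells of about 80 µL received 100 nL stock; the first replicate is given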
# Mtb hypoxia rep: PubChem AID 1159583; M. tuberculosis hypoxia-regulated fluorescent reporter, fluorescence; fluorescence inhibition, % (concentration not given with the values); actives 0.1% (n = 300,000);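 active = 35 to 45% if threefold the growth effect, above 45% if 1.5-fold the growth effect; inactive = the rest, general growth blockers included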;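 also: wells of about 50 µL received 100 nL stock; 0% = vehicle wells and 100% = reference inhibitor wells; whole bacteria with a GFP reporter of the hypoxia response; strong numbers were not always called active; many hits fall short of the cut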
# BJeLR viability: MLPCN primary cell-based screen for lethality selective to Ras in HRASV12 cells; BJeLR (HRASV12) viability, CellTiter-Glo ATP luminescence, 48 h; reference of the scale not given here; inhibition, % (no concentration beside the values); actives 0.17% (n = 300,000); AID 1554, 2009;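 active = replicate mean above 50%; inconclusive = above 50% but judged a plate artefact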;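 also: 50 nL library stock added to about 25 µL; numbers are from one replicate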
# PrP UTR inh: inhibition of PrP 5' UTR reporter expression. cell-based PrP 5' UTR mRNA reporter, plate reader. inhibition, % (test concentration not listed). actives 0.35% (n = 340,000). AID 488862, 2010;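 active = every replicate at 50% or more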;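 also: 0 = median of the neutral control wells; tested in H4 reporter cells; numbers are from one replicate; inactives centre near -14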
# RN4220 kill: growth inhibition of S. aureus RN4220, primary screen, OD600; AID 1259311, 2017; actives 0.33% (n = 330,000); 16 h; inhibition, % (no concentration beside the values);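 active = z-score of -3 or lower and OD600 up to 0.18 on both plates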;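 also: plate controls were untreated cells for no effect and reference antibiotic for full effect; stock transfer was 100 nL into about 80 µL; one replicate is shown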
# Bead autofluor: compound fluorescence in toxin protease inhibitor counterscreen; fluorescence intensity (test concentration not listed); compound autofluorescence counterscreen, microsphere flow cytometry; stronger effect = higher value; actives 3.1% (n = 360,000); AID 624483;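 active = at least 3 SD above the mean of all compounds, about 16000 in these data; inconclusive = too few beads counted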;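 also: 100 nL of 1 mM stock went into each well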
# Mtb hypoxia rep growth: second read-out of Mtb hypoxia rep, no call of its own (marks repeat the call); growth inhibition, %; measured here: M. tuberculosis growth (absorbance);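 0% = vehicle and 100% = reference antibiotic; read after six days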
# Active calls of the source: *; ? = inconclusive; . = not tested or not shown.
structure	Sa ugtP lethal	Mtb hypoxia rep	Mtb hypoxia rep growth	BJeLR viability	PrP UTR inh	RN4220 kill	Bead autofluor
Cc1ccccc1NC(=O)COC(=O)CNC(=O)c1sc2ccccc2c1Cl	8	-1	-3	-17	-32	9.0	2504
NC(=O)c1ccsc1NC(=O)COC(=O)c1ccccn1	3	-6	-2	.	-55	5.3	3947
O=Cc1cccc(Oc2ncccn2)c1	3	0	-2	-3	-26	7.1	3887
Cc1cc(C)c(OCC(O)CN2CCN(c3ccccn3)CC2)c(C)c1 (stereo not drawn)	0	8	7	0	-14	2.7	2174
CN(C)CCN1C(=O)c2ccccc2C1=O	1	-3	3	.	-22	2.4	4270
O=C(CN(CC1CCCO1)C(=O)CNS(=O)(=O)c1ccc(F)cc1)NC1CCCCC1 (stereo not drawn)	6	18	5	1	-17	4.8	3987
O=C(c1ccc(S(=O)(=O)Nc2ccccc2F)cc1)N1CCCC1	2	2	7	.	-1	3.9	.
COc1ccc(-n2nc(C(=O)NCC(=O)N3CCN(c4ccccn4)CC3)c3ccccc3c2=O)cc1	-6	2	6	4	-2	2.5	22175*
Cc1ccccc1CC1SC(N)=NC1=O (stereo not drawn)	6	6	0	-7	-8	6.0	3435
Cc1cc(C)n2c(SCC(=O)Nc3ccc(F)cc3)nnc2n1	4	7	-1	3	-15	2.9	3637
COCCNC(=S)NN=Cc1ccc(-c2ccc([N+](=O)[O-])cc2)o1	5	0	-7	.	.	2.3	.
O=C(c1ccc2ccccc2c1)N1CCOCC1	0	3	15	4	-16	2.0	?
CCN(CC)S(=O)(=O)c1cc(C(=O)Nc2cc(Cl)ccc2N2CCN(C)CC2)ccc1Cl	-2	5	6	-1	10	-2.9	?
Cc1nc(N=C(N)NC(=O)c2ccccc2)nc2ccccc12	-22	-9	-8	.	.	2.8	.
COc1ccc(CCC(=O)OCC(=O)NCc2ccccc2)cc1	11	12	10	.	-34	4.3	3780
Cc1cc(C(=O)CSc2nnc(-c3ccccc3)n2Cc2ccc3c(c2)OCO3)c(C)n1C	-6	14	7	7	-16	2.7	3829
COc1ccc(S(=O)(=O)N2CCOCC2)cc1NC(=O)CN1CCN(C)CC1	5	2	-3	-4	-6	0.4	4403
CCc1ccc(Nc2cnn(C34CC5CC(CC(CC(=O)O)(C5)C3)C4)c(=O)c2Cl)cc1	9	3	-1	-10	-25	6.3	4617
CC(=O)c1ccc(N2CCN(C(=O)CCCn3c(=O)[nH]c4ccsc4c3=O)CC2)cc1	7	3	7	1	-17	11	3251
CSC(=S)N/N=C/c1ccc(Br)cc1	.	.	.	-2	-4	.	2625
N#CC1=C(N)N(c2ccccc2Sc2ccccc2)C(=O)C1	2	16	7	-8	-17	3.8	2584
O=C(NC1CCCCC1)C(c1ccc(F)cc1)N(CCCN1CCOCC1)C(=O)c1ccc(CN2CCOCC2)o1 (stereo not drawn)	16	8	12	-7	-7	4.1	3427
COc1ccc(N(CC(=O)N/N=C/c2ccc(OC)cc2OC)S(=O)(=O)c2ccccc2)cc1	.	.	.	0	-17	.	4070
COC(=O)C1=C(C)N(c2cc(Cl)cc(Cl)c2)C(=O)C1	6	17	14	-8	-8	7.9	3195
O=C(NCCCn1ccnc1)c1csc2ccccc12	-2	12	1	5	-8	2.4	11201
Cc1c(C(=O)N2CCCCC2)c(S(=O)(=O)N2CCC(C)CC2)c(C)n1C	8	14	11	16	-19	9.1	4599
NC(Cc1c[nH]c2ccccc12)C(=O)NCc1ccccc1 (stereo not drawn)	-6	-8	6	4	-14	-2.1	3847
O=C(O)CC1(CC(=O)NCc2cc(F)cc3c2OCOC3)CCCCC1	5	7	11	4	-11	1.8	3779
c1ccc(-c2ccc(-n3ccnc3)cc2)cc1	4	-1	-2	-11	-92	5.2	8274
CCCCNC(=S)N1CCn2cccc2C1c1cccnc1 (stereo not drawn)	2	-5	13	13	-22	2.3	4451
O=C1NC(c2ccc3c(c2)OCO3)Oc2ccccc21 (stereo not drawn)	8	2	0	-8	-10	4.2	7770
COC(=O)c1ccc(/C=N/NC(=O)C2CC(=O)N(c3ccc(OC)cc3)C2)cc1 (stereo not drawn)	.	.	.	-1	-2	.	6298

# A run of entries of the results above, for reference:
structure	Sa ugtP lethal	Mtb hypoxia rep	Mtb hypoxia rep growth	BJeLR viability	PrP UTR inh	RN4220 kill	Bead autofluor
O=C1NC(c2ccc3c(c2)OCO3)Oc2ccccc21 (stereo not drawn)	8	2	0	-8	-10	4.2	7770
COC(=O)c1ccc(/C=N/NC(=O)C2CC(=O)N(c3ccc(OC)cc3)C2)cc1 (stereo not drawn)	.	.	.	-1	-2	.	6298

# Additional compounds follow.
structure	Sa ugtP lethal	Mtb hypoxia rep	Mtb hypoxia rep growth	BJeLR viability	PrP UTR inh	RN4220 kill	Bead autofluor
COC(=O)c1c(N)c(C#N)c(C)n1-c1ccccc1	2	.	.	-10	-22	-0.1	4405
O=C(Nc1ccc(S(=O)(=O)NCC2CCCO2)cc1)c1cccc(F)c1 (stereo not drawn)	12	8	7	-1	-29	3.6	3820
CCC1(Oc2ccccc2)C(=O)NC(=O)NC1=O	-4	6	6	.	-25	6.3	4102
CC(C)CNC(=O)c1cc(=O)[nH]c2ccc(S(=O)(=O)Nc3ccc(F)cc3)cc12	-1	-10	10	-18	-7	1.9	3880
O=C(c1ccncc1)N1CCN(CCc2ccccc2)CC1	0	9	14	-5	-9	0.4	4653
Cc1cccc(C2(c3cccc(C)c3)CC2C(=O)Nc2ccc([N+](=O)[O-])cc2O)c1 (stereo not drawn)	100*	18	1	15	-34	100*	2614
CCOC(=O)N1CCC(N2CCCC(C(=O)c3cc(F)ccc3OC)C2)CC1 (stereo not drawn)	8	17	-2	2	-14	2.6	2027
CC1CCN(CCC(=O)N2CCCc3c2c(=O)oc2ccc(O)cc32)CC1	-3	-10	12	-12	-16	0.7	10817
O=S1(=O)CCOC2Cc3ccccc3C2N1Cc1cccc(Cl)c1 (stereo not drawn)	16	6	-2	.	.	13	.
Cc1noc(C(=O)Nc2cccnc2)c1Cl	7	11	1	-1	-17	4.0	5514
Cn1c(=O)c2sccc2n(Cc2ccc(Br)cc2)c1=O	3	16	6	-13	12	2.7	5524
COc1ccc(S(=O)(=O)Nc2ccccc2C(=O)N2CCOCC2)cc1Br	0	5	4	-1	-6	3.4	5722
COc1cccc(NC(=O)c2ccc(OC(F)(F)F)cc2)c1	5	16	8	21	-52	3.8	3837
CC1C(OC(=O)CCC(=O)NC(C)(C)CO)O[C@H]2OC3(C)CC[C@H]4[C@H](C)CCC1C24OO3 (stereo partly drawn)	.	.	.	0	-30	.	4024
O=C(CSCc1ccccc1)N/N=C/c1ccccc1OCc1ccccc1	.	.	.	1	-6	.	12837
O=C1/C(=C\Nc2ccccc2)CCN1c1ncccn1	11	.	.	-9	-41	0.8	2715
Cc1nn(-c2cccc(Cl)c2)c(Cl)c1C=NNC(=O)c1cccs1	-16	5	-9	.	.	3.0	.
Cc1nc(Nc2ccc(O)cc2)c2c3c(sc2n1)CCCC3	2	17	8	1	-15	7.7	4313
O=C(Nc1ccc2c(c1)OCCO2)C(c1ccc(F)cc1)N1CCCCC1 (stereo not drawn)	13	23	5	-10	-11	4.9	3501
C=C(C)COc1ccc2c(CC)cc(=O)oc2c1C	7	5	-2	-2	-11	15	2360
COc1ccccc1NC(=O)c1ccc2c(=O)n3c(nc2c1)CCC3	-12	-16	-8	.	-27	0.8	6157
COc1cc2c(c(OC)c1)C(c1cccc(OC)c1OC)CC(=O)N2 (stereo not drawn)	-2	5	10	10	-23	1.9	6273
CCC(C)(C)n1nnnc1C(c1cc2cc(C)cc(C)c2[nH]c1=O)N1CCCC1 (stereo not drawn)	-1	5	15	.	.	4.6	10428
CCc1ccc(C(=O)c2cncc(Br)c2)cc1	-2	-90	-26	9	-66	-0.3	3486
Cc1ccc(S(=O)(=O)Cc2cn3cccnc3n2)cc1	0	.	.	-2	-20	1.0	2792
CCOc1ccc(CCNC(=O)c2cccc(S(=O)(=O)N3CCCC3)c2)cc1OCC	5	4	1	2	6	2.7	5780
O=C(Nc1cccc(Cl)c1)NC1(C(=O)NCc2cccs2)CCCCC1	-12	4	-3	2	-8	-6.5	7924
COc1ccc(N(C)S(=O)(=O)c2cccc(C(=O)OCC(=O)Nc3sc4c(c3C#N)CCCCC4)c2)cc1	5	7	7	-7	-17	4.8	2061
COc1ccc(-c2c3c(nc4sc5c(=O)[nH]c(C)nc5c24)CCC3)cc1	-3	.	.	-5	2	3.5	2581
O=C(Nc1ccc2oc(-c3cccnc3)nc2c1)c1cc2ccccc2o1	-11	.	.	11	-25	-3.0	4454
CC1CCCC(NC(=O)c2cccc(S(=O)(=O)N3CCCCC3)c2)C1C (stereo not drawn)	8	0	2	1	-14	3.0	5082
CC(NS(=O)(=O)c1ccc2c(c1)CC(=O)N2C)c1ccccc1 (stereo not drawn)	4	-6	-7	5	-8	-1.7	3751
CCc1ccccc1NC(=O)C1CCN(S(C)(=O)=O)CC1	2	0	0	-1	.	2.2	5935
CC(C)(C)OC(=O)CC1CC=CCC(CC(=O)NCCO)C(=O)NC(C(C)(C)C)COC1=O (stereo not drawn)	-5	9	5	.	.	2.1	.
CC(C)N=C1NN=C(c2cccs2)C(CC(=O)O)S1 (stereo not drawn)	3	15	-4	-4	-13	6.2	3466
COc1cccc(NS(=O)(=O)c2ccc(S(=O)(=O)N3CCCC3)cc2)c1	-6	-4	1	.	-10	3.7	5787
Cc1ccc(OCCOC(=O)c2cccc(S(=O)(=O)N3CC(C)OC(C)C3)c2)cc1 (stereo not drawn)	-6	7	-1	.	-12	-1.2	6649
CCC(=O)N1CCN(c2ccccc2NC(=O)COc2cccc(C)c2)CC1	-1	2	-9	-3	-31	3.2	5625
COc1ccccc1NS(=O)(=O)c1cc(C(=O)N2CCCC2)ccc1F	-2	2	-4	.	-10	3.8	4742
COCCNS(=O)(=O)c1cc2[nH]c3c(c2cc1C)C(=O)CC(C)(C)C3	6	6	-6	-7	-17	-0.7	3763

# 12 compounds out of the list, ordered by molecular weight, high to low.
structure	Sa ugtP lethal	Mtb hypoxia rep	Mtb hypoxia rep growth	BJeLR viability	PrP UTR inh	RN4220 kill	Bead autofluor
COc1ccc(N(C)S(=O)(=O)c2cccc(C(=O)OCC(=O)Nc3sc4c(c3C#N)CCCCC4)c2)cc1	5	7	7	-7	-17	4.8	2061
Cc1ccc(OCCOC(=O)c2cccc(S(=O)(=O)N3CC(C)OC(C)C3)c2)cc1 (stereo not drawn)	-6	7	-1	.	-12	-1.2	6649
COc1cccc(NS(=O)(=O)c2ccc(S(=O)(=O)N3CCCC3)cc2)c1	-6	-4	1	.	-10	3.7	5787
O=C(Nc1cccc(Cl)c1)NC1(C(=O)NCc2cccs2)CCCCC1	-12	4	-3	2	-8	-6.5	7924
CCC(=O)N1CCN(c2ccccc2NC(=O)COc2cccc(C)c2)CC1	-1	2	-9	-3	-31	3.2	5625
CC1CCCC(NC(=O)c2cccc(S(=O)(=O)N3CCCCC3)c2)C1C (stereo not drawn)	8	0	2	1	-14	3.0	5082
COCCNS(=O)(=O)c1cc2[nH]c3c(c2cc1C)C(=O)CC(C)(C)C3	6	6	-6	-7	-17	-0.7	3763
COc1ccc(-c2c3c(nc4sc5c(=O)[nH]c(C)nc5c24)CCC3)cc1	-3	.	.	-5	2	3.5	2581
O=C(Nc1ccc2oc(-c3cccnc3)nc2c1)c1cc2ccccc2o1	-11	.	.	11	-25	-3.0	4454
CC(NS(=O)(=O)c1ccc2c(c1)CC(=O)N2C)c1ccccc1 (stereo not drawn)	4	-6	-7	5	-8	-1.7	3751
CCc1ccccc1NC(=O)C1CCN(S(C)(=O)=O)CC1	2	0	0	-1	.	2.2	5935
CC(C)N=C1NN=C(c2cccs2)C(CC(=O)O)S1 (stereo not drawn)	3	15	-4	-4	-13	6.2	3466

# Remaining list, next part:
structure	Sa ugtP lethal	Mtb hypoxia rep	Mtb hypoxia rep growth	BJeLR viability	PrP UTR inh	RN4220 kill	Bead autofluor
CN1CCN(S(=O)(=O)c2ccc(NC(=S)NC(=O)C3CCCCC3)cc2)CC1	52	2	10	-3	-29	-3.7	4352
CC1CN(C(=O)CN2C(=O)NC(C)(c3ccccc3)C2=O)CC(C)O1 (stereo not drawn)	-1	7	18	-9	-18	2.0	9657
Cc1cccc(OCCCC(=O)NCCc2ccccc2)c1	-1	-4	-1	4	-4	1.6	2481
O=C(Nc1nc(-c2ccc3ccccc3c2)cs1)C1CCN(S(=O)(=O)c2cccs2)CC1	4	2	-2	-2	0	3.2	6830
